D2 ag = Beta-Arrestin HTS for Positive Allosteric Modulators of the Human D2 Dopamine Receptor: Agonists. DiscoveRx PathHunter D2 beta-arrestin, luminescence, 90 min; 100% = 57 uM dopamine signal. AID 624465, 2012. D(2) dopamine receptor (Homo sapiens), P14416. 360,000 tested, 0.084% active. activation, % (concentration not given with the values); in the data active = activation above about 40%; inconclusive = about 15% to 40%; inactive = below about 15%; further: compound concentration not given in the record; the text of the record calls up to 30% inactive
Target sequence (P14416 whole entry, looked up): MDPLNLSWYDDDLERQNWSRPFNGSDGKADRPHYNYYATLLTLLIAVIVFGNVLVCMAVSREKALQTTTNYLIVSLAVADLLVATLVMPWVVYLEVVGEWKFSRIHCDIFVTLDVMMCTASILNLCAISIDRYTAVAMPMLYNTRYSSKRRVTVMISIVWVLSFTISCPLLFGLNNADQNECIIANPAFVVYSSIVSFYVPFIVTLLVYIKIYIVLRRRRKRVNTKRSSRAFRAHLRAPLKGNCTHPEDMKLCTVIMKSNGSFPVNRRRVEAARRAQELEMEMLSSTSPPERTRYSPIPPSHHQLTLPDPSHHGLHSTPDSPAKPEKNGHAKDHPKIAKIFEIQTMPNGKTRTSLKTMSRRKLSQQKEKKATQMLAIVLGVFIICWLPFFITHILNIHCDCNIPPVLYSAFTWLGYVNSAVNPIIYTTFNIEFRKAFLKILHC
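Agonist mode: compounds alone added to overnight-plated D2 PathHunter cells for 90 min at 37 C, with 57 uM final dopamine (EC100) defining full response. Beta-arrestin recruitment detected by chemiluminescent reagent, read after 1 h at ambient temperature.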
TRPML1 agonist = qHTS for Agonists of the Human Mucolipin Transient Receptor Potential 1 (TRPML1); 410,000 tested, 0.12% active; activation, % (no concentration beside the values); Mucolipin-1 (Homo sapiens), Q9GZU1; AID 624414, 2012; TRPML1-expressing cells, Ca2+ dye fluorescence, FDSS; host cell line not named in the record; reference of the full effect not given here; in the data active = activation above about 50%; inconclusive = about 30% to 50%; inactive = below about 30%; further: 0% is about no effect; the text of the record puts the active cut at 80%
Target sequence (Q9GZU1 whole entry, looked up): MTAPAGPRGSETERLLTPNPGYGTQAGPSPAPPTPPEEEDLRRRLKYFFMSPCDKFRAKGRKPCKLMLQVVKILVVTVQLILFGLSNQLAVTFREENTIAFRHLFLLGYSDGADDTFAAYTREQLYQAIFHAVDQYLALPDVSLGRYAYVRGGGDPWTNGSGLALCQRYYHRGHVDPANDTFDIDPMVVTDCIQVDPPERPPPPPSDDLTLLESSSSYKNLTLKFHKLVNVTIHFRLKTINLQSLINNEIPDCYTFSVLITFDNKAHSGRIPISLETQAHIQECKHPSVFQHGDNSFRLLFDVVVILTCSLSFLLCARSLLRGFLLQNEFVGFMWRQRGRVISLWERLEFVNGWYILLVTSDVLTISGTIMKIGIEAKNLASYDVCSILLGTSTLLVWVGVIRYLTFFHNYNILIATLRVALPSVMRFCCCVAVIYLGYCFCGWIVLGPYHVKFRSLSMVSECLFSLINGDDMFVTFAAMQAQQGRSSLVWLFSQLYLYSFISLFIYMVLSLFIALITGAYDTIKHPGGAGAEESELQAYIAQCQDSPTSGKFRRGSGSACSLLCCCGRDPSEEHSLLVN
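Agonist activity was taken from a 110 s kinetic Ca2+ dye read on the FDSS after pinning compounds onto TRPML1-DL cells. The cells were seeded at 1,500/well with Tet inducer, incubated about 16 h, then dye-loaded at room temperature.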
PINK1 expr mod = A Quantitative High throughput Screen to Identify Chemical Modulators of PINK1 Expression; PINK1 immunofluorescence, high-content cytometry, 24 h; AID 624263, 2012; 410,000 tested, 0.2% active; Potency, µM (highest dose often 76.6 µM), without a hit: top-dose activation (PINK1 increase), usual class: activators; active = well fitted activation curve with a large enough effect; inconclusive = small, poorly fitted or top-dose-only effect; inactive = flat fitted curve, though single readings scatter; cell line not stated here;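 further: potency means the concentration at half of the fitted maximal effect; % of control where 0% means no effect; nearly all actives have a fitted effect of over 65% in size; a mitochondrial uncoupler was the plate control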
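Measures PINK1 amount and localization on or inside mitochondria by immunofluorescence. Stable cells get compounds at 5 concentrations for 24 hours before fixation and staining; CCCP controls included.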
TRPML1 blocker = qHTS for Inhibitors of the Human Mucolipin Transient Receptor Potential 1 (TRPML1); 390,000 tested, 0.02% active; TRPML1-inducible cells, Ca2+ dye fluorescence, FDSS; hits give low values; inhibition of EC80 agonist-evoked calcium signal; Mucolipin-1 (Homo sapiens), Q9GZU1; activity change, negative = inhibition, % (test concentration not listed); in the data active means activity change below about -50%; inconclusive means about -30% to -50%; inactive means above about -30%;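 further: stimulus is agonist 54-4 at its EC80 concentration; on the % scale 0 is the no-effect control and ±100 the full control effect; compound concentration not given in the record; the text of the record puts the active cut at -80%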
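Tet-induced TRPML1-DL cells loaded with Ca8 no-wash calcium dye were read kinetically on FDSS. Compound addition was followed by EC80 agonist 54-4 (4 uM final); inhibition was read over 110 s.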
Six1-Eya2 inh = qHTS Assay for Inhibitors of the Six1/Eya2 Interaction; AlphaScreen GST-Six1/His-Eya2 binding, biochemical; hits give low values; control for the full effect not named in the record; activity change, % (no concentration beside the values); 360,000 tested, 0.56% active; AID 651725, 2012; Homeobox protein SIX1 (Homo sapiens) + Protein phosphatase EYA2 (Homo sapiens), …; in the data active = activity change below about -65%; inconclusive = about -30% to -65%; inactive = above about -30%; further: on the % scale 0 is the no-effect control and ±100 the full control effect; compound concentration not given in the record
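AlphaScreen luminescence read after one hour at 37 °C in darkness. Pin-transferred compounds met GST-Six1 and His-Eya2 protein (5X stock 250 nM/500 nM) plus glutathione donor and Ni-chelate acceptor beads (5X, 50 ug/mL).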
D2 potentiator = Beta-Arrestin HTS for Positive Allosteric Modulators of the Human D2 Dopamine Receptor: Potentiators; D(2) dopamine receptor (Homo sapiens), P14416; DiscoveRx D2 beta-arrestin cells, luminescence, 90 min; 100% = 57 uM dopamine signal; potentiation, % (test concentration not listed); 360,000 tested, 0.23% active; active = potentiation of 50% or more; inconclusive = 30% to 50%; inactive = 30% or less;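 further: compound concentration not given in the record; tested on top of an EC20 dose of dopamine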
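PathHunter D2 cells, attached overnight at 37 deg C, received compound in DMSO plus dopamine at EC20 (50 nM final) for 90 min at 37 deg C. Beta-arrestin recruitment was read as luminescence after 1 h with detection reagent at ambient temperature.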
* = called active by the depositor; ? = inconclusive; . = not tested or not shown; [ ] = another dose, or the depositor's remark.

Preview (10 entries):
SMILES	D2 ag	TRPML1 agonist	PINK1 expr mod	TRPML1 blocker	Six1-Eya2 inh	D2 potentiator
O=C(NCc1c(Cl)cccc1Cl)c1[nH]c(C(F)(F)F)nc1-c1ccccc1	1.6	1.0	5.9%	37	-15	1
CCOC(=O)c1c(NC(=O)Nc2ccc(C)cc2)sc2c1CCN(C)C2	-1.5	0.1	?	2	-1	-1
COc1cccc(C2=NNC(=NCc3ccccc3)SC2)c1	-3.8	0.2	2.2%	-3	-23	-15
O=C(N/N=C/c1cccs1)c1cc(C2CC2)nc2ccccc12	-1.5	-1.3	8.8%	27	-12	-7
O=C(NC(Cc1ccccc1)C(=O)NC(Cc1ccccc1)C(=O)O)c1ccccc1 (configuration not stated)	-2.8	0.4	1.1%	-4	2	5
COc1ccccc1Cn1c(SCC(N)=O)nc2c(oc3ccccc32)c1=O	-1.6	2.5	3.9%	0	6	0
O=C1Nc2ccccc2C(=O)N2[C@H](c3ccccc3)[C@@H]3C(=O)N(Cc4ccccc4)C(=O)[C@@H]3[C@H]12	-2.7	1.0	0.5%	-1	-6	-10
CCOC(=O)CN1CC23C=CC(O2)C(C(=O)O)C3C1=O (configuration not stated)	3.4	0.5	1.0%	14	3	-2
CC(=O)C12OC1CC1C3CCC4=CC(=O)CCC4(C)C3CCC12C (configuration not stated)	0.2	-0.1	3.9%	5	6	-18
Cc1ccc(C(=O)CSc2ccc(-c3ccncc3)nn2)cc1	-1.8	1.2	1.3%	-8	-5	-2

The list itself, from the first entry:
SMILES	D2 ag	TRPML1 agonist	PINK1 expr mod	TRPML1 blocker	Six1-Eya2 inh	D2 potentiator
O=C(NCc1c(Cl)cccc1Cl)c1[nH]c(C(F)(F)F)nc1-c1ccccc1	1.6	1.0	5.9%	37	-15	1
CCOC(=O)c1c(NC(=O)Nc2ccc(C)cc2)sc2c1CCN(C)C2	-1.5	0.1	?	2	-1	-1
COc1cccc(C2=NNC(=NCc3ccccc3)SC2)c1	-3.8	0.2	2.2%	-3	-23	-15
O=C(N/N=C/c1cccs1)c1cc(C2CC2)nc2ccccc12	-1.5	-1.3	8.8%	27	-12	-7
O=C(NC(Cc1ccccc1)C(=O)NC(Cc1ccccc1)C(=O)O)c1ccccc1 (configuration not stated)	-2.8	0.4	1.1%	-4	2	5
COc1ccccc1Cn1c(SCC(N)=O)nc2c(oc3ccccc32)c1=O	-1.6	2.5	3.9%	0	6	0
O=C1Nc2ccccc2C(=O)N2[C@H](c3ccccc3)[C@@H]3C(=O)N(Cc4ccccc4)C(=O)[C@@H]3[C@H]12	-2.7	1.0	0.5%	-1	-6	-10
CCOC(=O)CN1CC23C=CC(O2)C(C(=O)O)C3C1=O (configuration not stated)	3.4	0.5	1.0%	14	3	-2
CC(=O)C12OC1CC1C3CCC4=CC(=O)CCC4(C)C3CCC12C (configuration not stated)	0.2	-0.1	3.9%	5	6	-18
Cc1ccc(C(=O)CSc2ccc(-c3ccncc3)nn2)cc1	-1.8	1.2	1.3%	-8	-5	-2
Cc1cc(NS(=O)(=O)c2ccc(NC(=O)CSc3nc4sc(C)c(C)c4c(=O)[nH]3)cc2)no1	-2.9	0.9	-1.6%	7	?	-8
O=[N+]([O-])c1cc(S(=O)(=O)N2CCOCC2)ccc1OCc1ccccc1C(F)(F)F	0.5	0.3	4.9%	11	5	-6
O=C(Nc1nnc(C2CC2)s1)c1cc(-c2ccccc2)nn1-c1ccccc1	-2.8	3.1	-2.3%	2	10	-13
C[C@@H]1CN([C@H](C)CO)C(=O)CCCn2nncc2CO[C@H]1CN(C)Cc1ccc(Cl)c(Cl)c1	-0.5	.	3.4%	.	2	.
Cc1cc2nc(/N=C(\N)NC(=O)C(C)C)nc(C)c2cc1C	-1.3	-0.4	13%	-5	-14	-5
Cc1nc(C(=O)Nc2cccc(Cl)c2Cl)nn1-c1cc(OC(C)C)c(Cl)cc1Cl	-1.8	0.0	1.2%	3	0	1
COc1ccc2c(c1)c(N=NC(N)=S)c(O)n2CC(=O)c1ccccc1	-5.8	1.1	6.8%	6	-10	-10
Cc1nc(SCC(=O)Nc2nc3ccccc3s2)n[nH]1	-0.4	1.1	-1.2%	-6	-5	-12
Cc1cccc2sc(NC(=O)CSc3nc4ccccc4o3)nc12	-2.9	1.1	.	6	-3	0
NC(=O)c1cc(S(=O)(=O)NCCc2ccccc2)cs1	-2.1	-0.1	2.0%	-17	0	-4
CCN(CC)C(=O)CSc1nnc2c3ccccc3n(C)c2n1	8.8	-0.6	1.2%	7	2	-1
O=C(NN1C(=O)NC2(CCCCC2)C1=O)c1cc2cc(Cl)ccc2o1	8.1	-0.4	0.0%	-5	6	-4
CCOc1ccc(C2C(C(=O)/C=C/c3ccco3)=C(O)C(=O)N2CCN2CCOCC2)cc1OC (configuration not stated)	1.2	-0.8	4.6%	2	-6	21
CC(C)(C)NC(=O)NC(=O)CSc1ccc(S(=O)(=O)N2CCOCC2)cn1	-0.4	0.3	-1.6%	5	1	-2
Cc1[nH]c(=O)c(C#N)c(C)c1CCC(=O)NCc1cccc(C(F)(F)F)c1	-0.8	0.7	1.3%	-9	-3	-5
COc1ccc(CCN2C(=O)CC(N3CCN(S(=O)(=O)c4ccccc4)CC3)C2=O)cc1 (configuration not stated)	0.2	0.8	1.2%	-2	25	-26
CC(C)C[C@H](NC(=O)N1CCn2c1nc1ccccc12)C(=O)NC1CCCCC1	-0.4	0.3	2.1%	-14	5	-6
O=C(Nc1ccc(F)c(Cl)c1)C1CC(=O)N(Cc2ccco2)C1 (configuration not stated)	-6.2	0.4	0.5%	4	-8	-13
O=C(/C=C/c1ccccc1)Nc1nc2n(n1)C(c1ccc(F)cc1)C=C(c1ccccc1)N2 (configuration not stated)	.	1.1	0.0%	-12	.	.
CCS(=O)(=O)N1CCN(S(=O)(=O)c2ccc(S(=O)(=O)NC3CC3)cc2)CC1	-1.9	1.5	-1.3%	0	5	-1
COc1ccc(N2CCN(Cc3nc(-c4ccc(Cl)cc4Cl)no3)CC2)cc1	2.7	0.9	-1.8%[38.3 µM]	1	?	11
CCOc1cc(CN2CCN(CCOCCO)CC2)ccc1OC	-1.8	0.0	4.3%[38.3 µM]	-3	0	-8
CC1(c2ccccc2)NC(=O)N(CC(=O)Nc2ccc(S(=O)(=O)NC3=NCCCCC3)cc2)C1=O (configuration not stated)	0.8	2.0	2.2%	-14	-1	-2
O=C(c1ccc(Cl)c(S(=O)(=O)N2CCCCCC2)c1)N1CCOCC1	-1.7	0.3	1.5%	8	13	-8
C[C@H]1CN([C@@H](C)CO)C(=O)c2cc(Br)cnc2O[C@H]1CN(C)C(=O)c1cccnc1	-8.2	-0.1	3.1%	-6	17	-9
C=CCc1c(C)nc(C)nc1N/N=C/c1ccc(N(C)C)cc1	-0.6	-0.7	0.1%	-9	-9	7
CC1CN(c2ccc([N+](=O)[O-])c(NCCOc3ccc(Cl)cc3)c2)CC(C)N1 (configuration not stated)	0.4	0.8	-2.5%	10	-7	-51
Cc1nc(SCC(=O)NCc2cccs2)nc(C)c1C	0.0	0.0	-1.2%	9	-2	-15
CCOC(=O)CSc1nc(C)c2cc(OC)ccc2n1	-0.3	-1.1	0.8%	10	6	-2
O=C(NCc1ccccc1Cl)c1ccc(CS(=O)Cc2ccc(Cl)cc2)o1 (configuration not stated)	-0.4	-1.0	1.0%	3	-2	-4
COc1cccc(/C=C2\SC(=O)N(CC(=O)NC3C=CS(=O)(=O)C3)C2=O)c1 (configuration not stated)	-1.7	-1.3	16%	-7	-24	-15
Cc1ccc(/C=C/C(=O)NC2CCCCCCC2)o1	1.7	2.6	7.1%	-8	-3	-24
COc1ccc(Oc2c(C)oc3c(CN(C)C)c(O)ccc3c2=O)cc1	1.6	0.4	-2.1%[38.3 µM]	-9	1	3
CC(C)N1CC(C(=O)O)CC1=O (configuration not stated)	-1.0	0.9	.	-3	7	-13
O=C(CN1C(=O)NC(c2ccccc2)(c2ccccc2)C1=O)N1CCCCC1	-1.9	0.6	0.8%	23	-1	-10
COc1ccc(NC(=O)c2sc3nc4c(cc3c2N)CCCCCC4)cc1	.	-1.0	1.5%	-1	.	.
O=C(NN=Cc1ccc2c(c1)CCN2)c1cccs1	-3.3	0.6	1.4%	-2	-3	-22
Cc1c(N=Cc2cc3c(cc2Cl)OCO3)c(=O)n(-c2ccccc2)n1C	-2.2	1.0	7.6%[38.3 µM]	13	1	6
CC(C)COC(=O)N1CCCCC1c1cc(C(=O)Nc2ccccc2)no1 (configuration not stated)	-7.3	0.6	2.9%	.	7	-12
CC(C)(C)OC(=O)N1CCC(c2c(C(=O)NCCN3CCC(Cc4ccccc4)CC3)cnn2-c2ccc(F)cc2)CC1	.	1.2	-2.0%	-8	.	.
Cc1c(C(=O)N2CCOCC2)c(S(=O)(=O)Nc2ccccc2F)c(C)n1C	-3.4	-1.1	0.7%	18	22	-3
CCOC(=O)c1ccc(NC(=S)NC(=O)c2nn(CC)cc2Br)cc1	-6.2	-0.2	6.3%	8	3	0
O=C(COc1ccc(Br)cc1)Nc1nc(-c2cccnc2)cs1	0.8	0.6	3.4%	15	23	-4
COc1ccc(N2C(=O)C(CC(=O)Nc3ccccc3)N(Cc3cccs3)C2=O)cc1 (configuration not stated)	1.4	0.4	0.9%	-6	-1	-7
O=C(COc1ccc(F)cc1)Nc1ccc(S(=O)(=O)Nc2ncccn2)cc1	-0.7	0.5	-0.8%	17	6	-11
CCCCCN(C(=O)CCC(=O)OCc1cc(C)ccc1C)c1c(N)n(CCCC)c(=O)[nH]c1=O	2.4	1.8	5.2%	3	-2	-31
COc1cccc(CNC(=O)C2CCN(S(=O)(=O)N3CCCC3)CC2)c1	-0.6	-0.3	-1.9%[38.3 µM]	-2	2	-11
Cc1ccc(N2CC(C(=O)NCCCn3ccnc3)CC2=O)cc1 (configuration not stated)	-4.3	0.1	-1.3%[38.3 µM]	-1	4	-6
CN(C)C(CNC(=O)c1ccc(Cl)c(S(=O)(=O)N2CCCCCC2)c1)c1ccccc1 (configuration not stated)	2.8	-0.2	-0.8%	-11	-1	-5
COc1ccc(Cn2nnnc2C(c2ccc(C)cc2)N2CCN(C3CCCC3)CC2)cc1 (configuration not stated)	-1.8	1.9	0.6%	1	-5	-20
C1=Nc2c(NCc3ccccc3)ncnc2Oc2ccccc21	0.6	-0.3	0.7%	-18	-4	-9

Rows were taken by chance (roughly 1% active in at least one column).
